Vaccinia pol inh: blocks vaccinia virus processive DNA synthesis. in vitro processive DNA synthesis, absorbance read-out; active compounds read low; some inactives read as strong as hits. normalized absorbance, % (concentration not given with the values). 46,000 tested, 0.94% active. AID 493162;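 active = replicate mean up to 90% and picked by the depositor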;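 note: 100% = median of the test wells of a plate; 100 nL library stock went into each well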
* = called active by the depositor. Some of the compounds tested. The share of hits here may be higher or lower than overall.

SMILES | Vaccinia pol inh
COc1ccc(CCNC(=O)c2cc3ccccc3c(=O)o2)cc1OC | 98
CCOC(=O)c1cccnc1SC(CC)C(=O)N1CCOCC1 (stereo not given) | 94
O=c1sn(-c2ccccc2C(F)(F)F)c(=O)n1CC1CC1 | 100
COC(=O)c1nnn(CC(=O)Nc2ccccc2)c1C(=O)OC | 100
CCOC(=O)CSc1nc2ccccc2c(=O)n1-c1ccccc1 | 100
COC(=O)CSc1nc2sc3c(c2c(=O)n1-c1ccccc1)CCC3 | 100
Cn1nc(C(=O)O)c2ccccc2c1=O | 100
O=C1N(C2CCCCC2)C(=NC2CCCCC2)SC12CC2 | 104
CCOC(=O)c1c(NC(=O)c2cc3ccccc3o2)sc2c1CC(C)(C)OC2 | 93
Cc1ccc(NC(=O)c2c(Cl)nc3ccccn23)cc1 | 102
COc1ccc(N2Cc3ccccc3C2=NC(=O)c2ccncc2)cc1 | 102
C=CCN1C(=O)c2ccccc2Sc2ccc(C(=O)NCC(OC)OC)cc21 | 92
CCOC(=O)N1CCN(C(=O)c2ccc3nc(-c4ccccc4)c(-c4ccccc4)nc3c2)CC1 | 100
COc1ccc(S(=O)(=O)NCc2ccco2)cc1 | 103
NC(=S)c1cnc(-c2ccncc2)nc1N | 100
Cc1cc(C)c2cc(C(=O)N3CCC(Cc4ccccc4)CC3)[nH]c2c1 | 92
CCC1CCCCN1C(=O)COC(=O)COc1ccc(Br)cc1 (stereo not given) | 106
O=C(CS(=O)(=O)c1cn(Cc2ccc(F)cc2)c2ccccc12)NC1CCCCC1 | 98
CCOC(=O)C(C)Sc1nnc(NC(=O)c2cc(Br)ccc2Cl)s1 (stereo not given) | 102
O=C1CC(N2CCCCC2)C=C1Nc1ccc(F)cc1 (stereo not given) | 100
Cc1ccc(NC2SC(=O)NC2=O)cc1 (stereo not given) | 108
N#Cc1c(NC(NC(=O)c2ccccc2)C(=O)c2cccs2)sc2c1CCCC2 (stereo not given) | 100
CCC(=O)N1N=C2CC(C)(C)OCC2C1c1ccccc1 (stereo not given) | 100
CCc1nc2sc3c(c2c(=O)n1O)CCC3 | 85
O=C(Cc1ccc(-n2c(=S)[nH]c3ccccc3c2=O)cc1)NC1CCCCC1 | 99
O=C1OCCC1OC(=O)C12CC3CC(CC(C3)C1)C2 (stereo not given) | 93
CC(C)(C)C(=O)CSc1nc2c(sc(=S)n2CCc2ccccc2)c(=O)n1Cc1ccco1 | 100
N#CC(c1c[nH]c2ccccc12)N1CCOCC1 (stereo not given) | 99
NC(C(=O)O)C12CC3CC(CC(C3)C1)C2 (stereo not given) | 106
CC(=O)Nc1ccc2nc(NC(=O)c3ccc(F)cc3)sc2c1 | 99
CCCN1CC=C2C(C#N)=C(N)C(C#N)(C#N)C3(C(=O)Nc4ccccc43)C2C1 (stereo not given) | 100
CCOC(=O)c1c(C)c(C#N)c(/N=C/N(C)C)n1-c1ccc(Cl)cc1Cl | 94
COC(=O)c1ccc(NC(=O)N2CCOc3ccc(C)cc32)cc1 | 91
CCOC(=O)c1cnc2c(C(F)(F)F)cccc2c1N1CCN(C)CC1 | 98
O=C(CCS(=O)(=O)c1ccc(Br)cc1)N1CCCCCC1 | 86
Clc1ncc(C=NCc2ccccc2)s1 | 71
COc1cc2c(cc1OC)C(C)N(S(=O)(=O)c1ccc3[nH]c(=O)ccc3c1)CC2 (stereo not given) | 103
COc1ccc(C(=O)Nc2ncnc3sc4c(c23)CCCC4)cc1OC | 98
CC12CN3CC(C)(CN(C1)C3c1ccc(O)cc1O)C2=O (stereo not given) | 100
O=C1OC(c2ccccc2)=N/C1=C\c1ccccc1C(F)(F)F | 100

21 compounds already listed, sorted by molecular weight, rising.
SMILES | Vaccinia pol inh
Cn1nc(C(=O)O)c2ccccc2c1=O | 100
Cc1ccc(NC2SC(=O)NC2=O)cc1 (stereo not given) | 108
NC(=S)c1cnc(-c2ccncc2)nc1N | 100
CCc1nc2sc3c(c2c(=O)n1O)CCC3 | 85
O=C1OCCC1OC(=O)C12CC3CC(CC(C3)C1)C2 (stereo not given) | 93
CCC(=O)N1N=C2CC(C)(C)OCC2C1c1ccccc1 (stereo not given) | 100
CC12CN3CC(C)(CN(C1)C3c1ccc(O)cc1O)C2=O (stereo not given) | 100
COC(=O)c1nnn(CC(=O)Nc2ccccc2)c1C(=O)OC | 100
CCOC(=O)c1cccnc1SC(CC)C(=O)N1CCOCC1 (stereo not given) | 94
COc1ccc(N2Cc3ccccc3C2=NC(=O)c2ccncc2)cc1 | 102
Cc1cc(C)c2cc(C(=O)N3CCC(Cc4ccccc4)CC3)[nH]c2c1 | 92
COc1ccc(CCNC(=O)c2cc3ccccc3c(=O)o2)cc1OC | 98
CCOC(=O)c1cnc2c(C(F)(F)F)cccc2c1N1CCN(C)CC1 | 98
COc1ccc(C(=O)Nc2ncnc3sc4c(c23)CCCC4)cc1OC | 98
CCCN1CC=C2C(C#N)=C(N)C(C#N)(C#N)C3(C(=O)Nc4ccccc43)C2C1 (stereo not given) | 100
O=C(Cc1ccc(-n2c(=S)[nH]c3ccccc3c2=O)cc1)NC1CCCCC1 | 99
C=CCN1C(=O)c2ccccc2Sc2ccc(C(=O)NCC(OC)OC)cc21 | 92
N#Cc1c(NC(NC(=O)c2ccccc2)C(=O)c2cccs2)sc2c1CCCC2 (stereo not given) | 100
O=C(CS(=O)(=O)c1cn(Cc2ccc(F)cc2)c2ccccc12)NC1CCCCC1 | 98
CCOC(=O)C(C)Sc1nnc(NC(=O)c2cc(Br)ccc2Cl)s1 (stereo not given) | 102
CC(C)(C)C(=O)CSc1nc2c(sc(=S)n2CCc2ccccc2)c(=O)n1Cc1ccco1 | 100

Next compounds.
SMILES | Vaccinia pol inh
CC12CN(C(=O)c3ccccc3)CC(C)(CN(C(=O)c3ccccc3)C1)C2=O | 107
Cn1nc(C(=O)N(Cc2ccco2)C2CCCCC2)c2c1-c1ccccc1SC2 | 105
COc1cccc(/C=N/n2cnc3cc(C)c(C)cc32)c1OC | 82
O=C(Nc1nc(-c2ccccc2)cs1)C1CC1 | 101
N=c1n(CCO)c2ccccc2n1Cc1ccc(Cl)cc1 | 100
OC(COCc1ccccc1)Cn1c2ccccc2c2ccccc21 (stereo not given) | 94
CCCN1C(=O)c2ccc(C(=O)O)cc2C1=O | 104
Cc1ccsc1C(=O)OCC(=O)c1ccccc1 | 96
c1ccc(C2CC3CCCCC3CO2)cc1 (stereo not given) | 100
O=C(Cn1nc(-c2ccccc2)ccc1=O)NCCCN1CCCC1 | 95
C[C@]12CCC3C(CC[C@@H]4C[C@H](O)CC[C@]34C)C1CCC2=O (stereo not given in full) | 100
COC(=O)/C(=C\c1cccnc1)NC(=O)c1ccc(OCc2ccccc2)cc1 | 101
COc1ccc(Oc2c(F)c(F)nc(F)c2Cl)cc1 | 100
N#C/C(=C/Nc1ccccc1)c1ccsc1 | 91
CCc1cc(C(=O)Cc2nc3ccccc3s2)c(O)cc1O | 90
N#CCSc1nc2ccccc2c(=O)n1CCCn1c(SCC#N)nc2ccccc2c1=O | 97
COc1ccc(N(C(=O)c2ccncc2)S(=O)(=O)c2ccc(OC)c(OC)c2)cc1 | 104
Cc1ccc(C(=O)Cc2ccccc2O)cc1 | 105
Cc1ccccc1NC(=O)Cn1nc(C)c2ccccc2c1=O | 103
CC1Cc2ccccc2N1C(=O)CSCC(=O)O (stereo not given) | 100
CCOC(=O)C1=C(C(F)(F)F)OC(N)=C(C#N)C1c1ccc(-c2ccccc2)cc1 (stereo not given) | 96
CCc1c(C)nn2cn[n+](Cc3ccccc3)c2c1[O-] | 96
Cc1cc(C(F)(F)Cl)nc(-c2ccccc2)n1 | 118
CCOc1ccc(NC23SCC(=O)C2CCc2ccccc23)cc1 (stereo not given) | 85
CCOc1ccc(-c2ncnn2-c2ccc(Cl)cc2)cc1 | 99
COCCn1c(-c2ccccc2)nc2ccccc21 | 99
CCOC(=O)c1nc2sc3c(c2c(=O)[nH]1)CCC(C)C3 (stereo not given) | 105
Cn1c(CO)cnc1SCC(=O)c1ccc(Br)cc1 | 86
Cn1c(=O)cc(SCC(=O)NCC2CCCO2)c2ccccc21 (stereo not given) | 102
CCC(C)NC(=O)c1cnn2c(C(F)(F)F)cc(-c3ccccc3)nc12 (stereo not given) | 99
C=CCc1c(C)[nH]c2c(Cl)cccc2c1=O | 107
ClCC1=Nc2cccc3cccc(c23)N1 | 96
COc1ccc2oc(=O)c(C(=O)n3ccnc3C)cc2c1 | 95
Cc1cc(C)n(CCc2nc3c4ccccc4n(Cc4ccc(Cl)cc4)c(=O)n3n2)n1 | 104
O=C(c1ccccc1)C(CC(=O)N1CCOCC1)c1ccccc1 (stereo not given) | 94
Cc1cc(C)n2nc(SC(C)C(=O)NC3CCCCCCC3)nc2n1 (stereo not given) | 106
c1ccc(-n2ncc3c(NCC4CCCO4)ncnc32)cc1 (stereo not given) | 98
N#CCSC1=Nc2ccccc2C2=NC(CCC(=O)NC3CCCCC3)C(=O)N12 (stereo not given) | 100
CC(=O)Nc1ccccc1OCCN(Cc1ccccc1)C(=O)c1ccc(Cl)cc1 | 103
Cc1ccc(-n2nc(C)c3c(C)c(CCC(=O)NCc4cccs4)c(C)nc32)cc1 | 102
CCOC(=O)c1cnc2c(ccc3[nH]snc32)c1=O | 101
CCOC(=O)c1c(C)n(C)c2ccc(OCCN(C)C)cc12 | 65*
Oc1ccc(O)c([S+]2CCCCC2)c1 | 103
Cc1ccc(Nc2cc(C(=O)NCCC3=CCCCC3)c3ccccc3n2)c(C)c1 | 102
NCCN1C(=O)S/C(=C/c2ccccc2)C1=O | 84
N#CC(C#N)C(c1ccsc1)c1c(-c2ccccc2)[nH][nH]c1=O (stereo not given) | 100
CCOC(=O)c1sc(NC(=O)c2cccs2)nc1-c1ccccc1 | 108
O=C(c1ccccc1)C1CN(C2CCS(=O)(=O)C2)CCC1(O)c1ccccc1 (stereo not given) | 105
CC(=O)OCC(=O)Nc1ccc(I)cc1C | 102
C/C(=C\C=C\c1ccccc1)C(=O)c1c(C)cc(C)[nH]c1=O | 100
Cc1cc2c(c(=O)o1)C(c1cccc(COc3ccccc3Cl)c1)C(C#N)=C(N)C2 (stereo not given) | 100
CCN(CC)c1ncnc2c1cnn2Cc1ccc(Cl)cc1 | 94
COc1ccccc1COc1ccc2c3c(c(=O)oc2c1C)CCCCC3 | 99
Cc1ccc(-c2noc(CN(C)C(=O)Nc3ccc(Cl)cc3)n2)cc1 | 92
O=C(O)C1(c2ccccc2)CCC(Nc2ccccc2)C1 (stereo not given) | 102
CC(=O)NCc1nc2ccccc2n1Cc1ccccc1 | 98
Cc1cc(C)n2nc(CC(=O)NC3CCCCCCC3)nc2n1 | 105
CCOC(=O)Cc1nc2ccccc2o1 | 99
Cc1cc(Nc2ccccc2)n(-c2ccccc2)n1 | 90
N=c1oc2ccc(Br)cc2cc1-c1nc2ccccc2[nH]1 | 104

(list continues)
SMILES | Vaccinia pol inh
CCOC(=O)c1cnc(S/C=C/C(=O)c2ccc(Cl)cc2)nc1N | 89
CCN(C(=O)C(C)Oc1ccccc1)c1ccccc1C (stereo not given) | 102
CCN1C(=O)C(CC(=O)Nc2ccc(Br)cc2)N(CCNC(C)=O)C1=S (stereo not given) | 100
COc1cc(Br)cc(C=Nc2cccc(-c3nc4ccccc4o3)c2)c1O | 100
CC(C)OC(=O)c1cccnc1SCc1cc(=O)n2ccccc2n1 | 92
c1ccc(-c2cccs2)cc1 | 89
COc1ccc(-c2c3c(=O)n(C)c(=O)n(C)c3cn2-c2cccc(NC(C)=O)c2)cc1 | 104
CCNS(=O)(=O)c1ccc(NC(=O)c2ccc(Cn3cc(Br)cn3)o2)cc1 | 100
O=C(CSc1nnc2n1CCCCC2)c1ccc(Cl)cc1 | 101
Cc1cc(C)c2nc(N3CCCC(C(=O)NC4CCCc5ccccc54)C3)sc2c1 (stereo not given) | 102
COc1ccc(-c2nc3ccc4ccccc4c3c3c2CCC3)cc1 | 100
CCOC(=O)c1sc2c(c1O)c(=O)n(-c1ccccc1)c(=S)n2-c1ccccc1 | 86
CCOC(=O)c1nn(-c2ccccc2)c2nc(Nc3ccc(C)cc3)cc(=O)n12 | 106
CC(C)(CO)NC(=O)c1cc(-c2ccc(F)cc2)no1 | 89
O=c1n(-c2cccc(Cl)c2)c(=O)n(Cc2cccc(F)c2)n1Cc1cccc(F)c1 | 106
CCOc1cc2[nH]c(=S)n(CCCC(=O)O)c(=O)c2cc1OCC | 99
O=C(Nc1ccccc1)c1cccc(S(=O)(=O)NCCC23CC4CC(CC(C4)C2)C3)c1 | 100
O=C(COC(=O)C1CC2C=CC1C2)Nc1ncc(Cl)cc1Cl (stereo not given) | 100
Cc1ccc(-c2cnc3ccccc3n2)cc1N | 91
Cc1ccc(C)c(NC(=O)COC(=O)CC2CC3CCC2C3)c1 (stereo not given) | 98
CNC(=O)c1ccc(N)cc1 | 101
Cc1ccc(NC(=O)CSc2cn(C)c3ccccc23)cc1 | 101
CC1=C(C(N)=O)C(c2ccccc2)n2nc(-c3ccccc3)nc2N1 (stereo not given) | 100
COc1cccc(C(=O)Nc2ccc(C)cc2)c1 | 86
COc1cc(/C=C2/SC(=S)N(Cc3ccccc3)C2=O)ccc1OCC(N)=O | 95
C[C@]12CCC3c4ccc(OS(=O)(=O)O)cc4CCC3C1CC[C@H]2O (stereo not given in full) | 100
Cc1cc(Cl)ccc1OCc1cn2cccnc2n1 | 83
Cc1ccc(OCCSc2nc(N)cc(N)n2)c(C(C)C)c1 | 94
COc1cc(/C=C2\SC(=S)N(c3cccc(C(F)(F)F)c3)C2=O)ccc1O | 100
Cc1oc(C(=O)O)cc1COc1ccc2c3c(c(=O)oc2c1)CCCC3 | 100
CCN1C(=O)CS/C1=C(\C#N)S(=O)(=O)c1ccccc1 | 100
Cc1ccc(NC(=O)CSc2nnc(NC(=O)C3CCCCC3)s2)cc1 | 100
CN(C)CCNC(=O)c1ccc2c(c1)N(Cc1ccccc1)C(=O)CS2 | 101
Cc1onc(-c2ccccc2)c1C(=O)N(Cc1ccccc1)C(C)C | 107
O=C(NCc1ccco1)c1cccc2c1C(=O)N(Cc1cccnc1)C2 | 103
CCOC(=O)CCN1N=C(c2ccc(CC)cc2)CCC1=O | 87
CC1CN(C(=O)CCC(=O)N2CCC(C(N)=O)CC2)c2ccccc2O1 (stereo not given) | 101
COc1ccc(CNc2ncc(C#N)cn2)cc1 | 98
N=c1oc2cc(O)ccc2cc1C(=O)Nc1cccc(C(F)(F)F)c1 | 102
Nn1c(CO)nc2ccccc21 | 99
